# MLL AF4-AF9 inh – inhibitors of human MLL-AF4/AF9 interaction; P42568; AlphaScreen, biotin-AF4 peptide binding to FLAG-AF9; inhibition, % at 10 µM; 350,000 compounds, 0.47% hits;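 active = every replicate reaching a set inhibition limit, whatever the replicate mean, cut at about 25% in these data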;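 note: 0% = plate neutral control median and 100% = total signal loss; the record names both 10 and 1 µM as test concentration; the first replicate is given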
# Target sequence (P42568 whole entry, looked up): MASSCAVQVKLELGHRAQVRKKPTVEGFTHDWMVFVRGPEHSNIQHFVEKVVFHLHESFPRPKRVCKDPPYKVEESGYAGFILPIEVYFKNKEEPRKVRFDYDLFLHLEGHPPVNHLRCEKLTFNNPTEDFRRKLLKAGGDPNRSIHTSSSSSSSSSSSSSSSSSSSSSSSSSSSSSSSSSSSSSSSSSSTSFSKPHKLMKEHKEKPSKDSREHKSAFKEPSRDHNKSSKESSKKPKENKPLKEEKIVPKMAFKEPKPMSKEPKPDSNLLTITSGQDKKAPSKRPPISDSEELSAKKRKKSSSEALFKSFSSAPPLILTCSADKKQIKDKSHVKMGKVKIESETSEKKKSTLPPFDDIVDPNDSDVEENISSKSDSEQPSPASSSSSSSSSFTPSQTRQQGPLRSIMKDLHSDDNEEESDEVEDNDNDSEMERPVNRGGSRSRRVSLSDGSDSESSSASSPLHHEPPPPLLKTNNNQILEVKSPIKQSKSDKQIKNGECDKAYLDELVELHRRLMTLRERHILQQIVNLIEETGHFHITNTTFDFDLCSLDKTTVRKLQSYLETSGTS
# Active calls of the source: *; & = joins results of further samples. Not all compounds are listed; the hit share may differ from the screen's.
SMILES,MLL AF4-AF9 inh
COc1ccc(-c2ccc(C3[C@H]4CNC[C@@H]3N4Cc3cc(OC)cc(OC)c3)cc2)cc1 (stereo not given in full),-1.6&6.1
C[C@H](CO)N1C[C@H](C)[C@H](CN(C)C(=O)NC2CCCCC2)Oc2c(NS(=O)(=O)c3cn(C)cn3)cccc2C1=O,1.2
COc1ccc(S(=O)(=O)Nc2ccc3c(c2)C(=O)N([C@H](C)CO)C[C@@H](C)[C@H](CN(C)S(=O)(=O)c2ccc(C)cc2)OCCCC[C@H](C)O3)cc1,-1.8
O=C(C[C@@H]1CC[C@@H]2[C@H](COC[C@@H](O)CN2S(=O)(=O)c2ccc(Cl)cc2)O1)N[C@@H]1CCN(Cc2ccccc2)C1,0.9
COc1ccc(S(=O)(=O)Nc2cccc3c2O[C@@H](CN(C)S(=O)(=O)c2ccc(Cl)cc2)[C@H](C)CN([C@@H](C)CO)C3=O)cc1,-0.9
COC(=O)C[C@@H]1CC[C@H]2[C@H](COc3ccc(NC(=O)Nc4c(C)noc4C)cc3C(=O)N2C)O1,-2.4
C[C@@H]1CN([C@@H](C)CO)C(=O)c2cc(-c3cccc(C(=O)N(C)C)c3)cnc2O[C@@H]1CN(C)S(=O)(=O)c1cccc(F)c1,-7.4
O=C(C[C@@H]1C[C@H]2c3cc(NS(=O)(=O)c4ccc(F)cc4)ccc3O[C@H]2[C@@H](CO)O1)NCCN1CCCCC1,5.2
Cc1ccc(S(=O)(=O)N(C)C[C@H]2Oc3ccc(NS(C)(=O)=O)cc3CC(=O)N([C@@H](C)CO)C[C@@H]2C)cc1,-13.5
Cn1c(=O)n(C)c2cc(CNC(=O)[C@H]3O[C@@H](n4ccc(=O)[nH]c4=O)[C@H](O)[C@@H]3O)ccc21,-1.9
CCCNC(=O)C1(C)CCCN(C(=O)c2cc(F)cc(F)c2)C1 (stereo not given),1.0
N#CC12C(=O)NC(=O)C1(C#N)C21CCCC1 (stereo not given),10.8
CCNC(=O)C[C@H]1CC[C@@H]2[C@H](COc3ccc(NC(=O)c4ccc5c(c4)OCO5)cc3C(=O)N2C)O1,-1.3
COc1ccc(S(=O)(=O)Nc2ccc3c(c2)CC(=O)N([C@@H](C)CO)C[C@H](C)[C@H](CN(C)C(=O)NC(C)C)O3)cc1,-0.7
C[C@H]1CN([C@@H](C)CO)C(=O)c2cc(NC(=O)Nc3ccc(C(F)(F)F)cc3)ccc2O[C@@H]1CN(C)S(=O)(=O)c1ccc(Cl)cc1,-1.6
O=C(C[C@H]1C=C[C@@H](NC(=O)C2CC2)[C@@H](CO)O1)NCC1CC1,-3.1
CO[C@@H]1CN(C)C(=O)c2ccc(NS(C)(=O)=O)cc2OC[C@@H](C)N(Cc2nccs2)C[C@@H]1C,0.3
O=C(C[C@H]1CC[C@@H]2[C@H](COC[C@H](O)CN2C(=O)c2cccnc2)O1)NCc1ccc(-c2ccccc2)cc1,-3.1
CN(C)c1ccc2c(c1)[C@H]1C[C@@H](CC(=O)NCc3cccc(F)c3)O[C@@H](CO)[C@H]1O2,1.7
COc1ccc(Cc2c(-c3ccc(C)cc3)nc3c(C)cc(Br)cn23)c(C)c1,-2.4
COc1ccccc1C(=O)Nc1ccc2c(c1)C(=O)N(C)C[C@H](OC)[C@@H](C)CN[C@@H](C)CO2,-11.6
CCc1nc(N2[C@H](CO)[C@H](c3ccccc3-c3ccccc3F)[C@@H]2C#N)sc1C,-1.7
COc1ccc(NC(=O)N(C)C[C@@H]2Oc3c(NC(=O)c4ccncc4)cccc3C(=O)N([C@H](C)CO)C[C@H]2C)cc1,-2.0
O=C([C@H]1[C@H](CO)[C@H]2Cn3c(ccc(-c4cccnc4)c3=O)[C@@H]1N2Cc1ccncc1)N1CCOCC1,-1.5
COc1ccc(N2c3ccccc3CN(Cc3ccccc3)[C@@H](C)[C@H]2Cc2ccc(-c3ccccc3)cc2)cc1,5.1

# Three entries out of the list above, ordered by the number in MLL AF4-AF9 inh, highest first:
structure	MLL AF4-AF9 inh
CCCNC(=O)C1(C)CCCN(C(=O)c2cc(F)cc(F)c2)C1 (stereo not given)	1.0
CCNC(=O)C[C@H]1CC[C@@H]2[C@H](COc3ccc(NC(=O)c4ccc5c(c4)OCO5)cc3C(=O)N2C)O1	-1.3
COc1ccc(Cc2c(-c3ccc(C)cc3)nc3c(C)cc(Br)cn23)c(C)c1	-2.4

# (next part)
SMILES,MLL AF4-AF9 inh
CCOC(=O)[C@H]1[C@H]2COc3ccc(Br)cc3[C@@H]2N2C(=O)CN(C)C(=O)[C@@]12C,-2.1
C[C@@H]1CN([C@H](C)CO)C(=O)c2cc(NC(=O)Cc3ccccc3)ccc2O[C@@H]1CN(C)S(=O)(=O)c1ccc(F)cc1,-0.6
C[C@H](NC(=O)C[C@H]1CC[C@H]2[C@@H](COC[C@@H](O)CN2C(=O)Nc2cc(Cl)cc(Cl)c2)O1)c1ccccc1,0.5
COc1ccccc1NC(=O)N[C@@H]1CC[C@@H](CCn2cc(-c3ccccc3)nn2)O[C@H]1CO,1.0
CCC(=O)N[C@H]1CC[C@H](CC(=O)OC)O[C@H]1CO,-0.2
COc1ccc(C(=O)c2[nH]c(N)c(C(=O)NCCc3c[nH]c4ccccc34)c2-c2ccccc2Br)cc1,-0.9
CCCC(=O)Nc1ccc2c(c1)C(=O)N(C)C[C@@H](OC)[C@@H](C)CN(C(=O)c1cccnc1)[C@H](C)CO2,4.9
C[C@@H]1CCCCO[C@@H](CN(C)CC2CCCCC2)[C@H](C)CN([C@H](C)CO)C(=O)c2cc(NC(=O)Nc3cccc4ccccc34)ccc2O1,15.6
CC(C)NC(=O)N1[C@H](CO)[C@@H]2c3ccccc3N(C(=O)C3CC3)C[C@@H]21,1.2
Cc1cccc(S(=O)(=O)N2C[C@H](O)COC[C@@H]3O[C@@H](CC(=O)Nc4ccccc4)CC[C@H]32)c1,2.2
C[C@H]1CN([C@@H](C)CO)C(=O)c2cc(NC(=O)Cc3ccccc3)ccc2O[C@H]1CN(C)C(=O)Nc1ccc(F)cc1,-1.8
COc1ccc(NC(=O)N(C)C[C@@H]2Oc3cc(-c4ccncc4)ccc3S(=O)(=O)N([C@@H](C)CO)C[C@@H]2C)cc1,-0.1
CCOC(=O)C1(C)CCN1C(=O)c1ccc2ccccc2c1 (stereo not given),-3.3
C[C@H](NC(=O)C[C@@H]1C[C@H]2c3cc(NC(=O)Nc4ccc(C(F)(F)F)cc4)ccc3O[C@H]2[C@@H](CO)O1)c1ccccc1,-2.1
O=C(CCN1CCCCC1)NCC[C@@H]1CC[C@@H](NC(=O)Nc2ccc(Cl)cc2)[C@H](CO)O1,0.5
CN1CCCCN2[C@H](C1)[C@H](c1ccc(Br)cc1)[C@@H]2CO,0.2
C[C@H]1CN([C@@H](C)CO)C(=O)c2cc(C#Cc3cccnc3)cnc2O[C@H]1CN(C)C,-9.1
C[C@@H]1CN([C@H](C)CO)C(=O)c2cc(-c3ccc(F)cc3)cnc2O[C@H]1CN(C)C(=O)c1cccnc1,-3.8
C[C@@H]1CN([C@@H](C)CO)C(=O)c2cccc(NS(C)(=O)=O)c2O[C@H]1CN(C)Cc1ccc(-c2ccccc2)cc1,6.1
C[C@H](CO)N1C[C@H](C)[C@H](CN(C)Cc2ccc(C(=O)O)cc2)OCCCC[C@H](C)Oc2ccc(NC(=O)NC3CCCCC3)cc2C1=O,2.2
COc1ccc2c3c([nH]c2c1)[C@@H](CO)N(C)CC31CCN(C(=O)Nc2c(C)noc2C)CC1,-1.5
CC(C)(C)[S@](=O)N1Cc2cc(C(=O)N3CCCCC3)nc(-c3cccc(-c4cccc(C#N)c4)c3)c2[C@@H]1CCO,0.2
Cc1ccc(S(=O)(=O)Nc2cccc3c2O[C@H](CN(C)Cc2ccc(C(F)(F)F)cc2)[C@H](C)CN([C@H](C)CO)C3=O)cc1,4.7
CC=Cc1ccc2n(c1=O)C[C@@H]1[C@@H](CO)[C@H](C(=O)NC3Cc4ccccc4C3)N(CC3CCCC3)[C@H]21 (mixture of isomers),4.2
Cc1ccc(S(=O)(=O)N[C@@H]2CC[C@@H](CCNC(=O)c3ccccc3F)O[C@@H]2CO)cc1,1.4

# Three structures already listed, arranged by number of heavy atoms, highest first.
SMILES,MLL AF4-AF9 inh
CC(C)(C)[S@](=O)N1Cc2cc(C(=O)N3CCCCC3)nc(-c3cccc(-c4cccc(C#N)c4)c3)c2[C@@H]1CCO,0.2
O=C(CCN1CCCCC1)NCC[C@@H]1CC[C@@H](NC(=O)Nc2ccc(Cl)cc2)[C@H](CO)O1,0.5
C[C@H]1CN([C@@H](C)CO)C(=O)c2cc(C#Cc3cccnc3)cnc2O[C@H]1CN(C)C,-9.1

# Continuation:
SMILES,MLL AF4-AF9 inh
C[C@@H]1CN([C@H](C)CO)C(=O)c2cc(NC(=O)Cc3cn(C)c4ccccc34)ccc2O[C@@H]1CN(C)Cc1ccc2c(c1)OCO2,7.8
CO[C@H]1CN(C)C(=O)c2cc(NC(=O)C3CCOCC3)ccc2OC[C@@H](C)NC[C@@H]1C,-0.6
O=C(C[C@@H]1C[C@H]2c3cc(NC(=O)c4ccc5c(c4)OCO5)ccc3O[C@H]2[C@@H](CO)O1)NCc1ccc(Cl)cc1,-0.4
CO[C@@H]1CN(C)C(=O)c2ccc(NS(C)(=O)=O)cc2OC[C@H](C)N(C(=O)C2CC2)C[C@H]1C,-1.9
CCCNC(=O)N1C[C@H](C)[C@@H](OC)CN(C)C(=O)c2cc(NS(=O)(=O)CC(F)(F)F)ccc2OC[C@H]1C,-0.6
Cc1noc(C)c1NC(=O)Nc1ccc2c(c1)C(=O)N([C@@H](C)CO)C[C@@H](C)[C@@H](CN(C)C(=O)C1CCCCC1)OCCCC[C@H](C)O2,0.4
C[C@@H]1CN([C@H](C)CO)C(=O)c2cccc(NC(=O)Nc3ccc(C(F)(F)F)cc3)c2O[C@@H]1CN(C)S(=O)(=O)c1cn(C)cn1,-2.2
CO[C@H]1CN(C)C(=O)c2cc(NC(=O)c3nc4ccccc4s3)ccc2OC[C@@H](C)N(Cc2cccnc2)C[C@H]1C,6.7
CC(C)CC1NC(=O)c2cc3ccccc3cc2-n2c1nc1cc(Cl)ccc1c2=O (stereo not given),-0.1
CN(C)C(=O)[C@H]1[C@H](CO)[C@H]2Cn3c(ccc(-c4cncnc4)c3=O)[C@H]2N1Cc1ccccc1F,-1.2
CCNC(=O)c1cc2c(c(-c3cccc(-c4cccc(C(=O)N(C)C)c4)c3)n1)[C@H](CCO)N([S@@](=O)C(C)(C)C)C2,-5.3
C[C@@H]1CCCCO[C@@H](CN(C)C(=O)Nc2ccc3c(c2)OCO3)[C@H](C)CN([C@H](C)CO)C(=O)c2cc(NC(=O)CCC(F)(F)F)ccc2O1,4.0
CC(=O)N1[C@@H](CO)[C@@H](c2ccccc2)C12CN(Cc1nccs1)C2,-10.4
COc1ccc(S(=O)(=O)N(C)C[C@H]2OCCCC[C@@H](C)Oc3ccc(NS(=O)(=O)c4ccc(C)cc4)cc3C(=O)N([C@@H](C)CO)C[C@@H]2C)cc1,-0.4
COc1ccc(S(=O)(=O)N2CCCCC2c2cc(C(=O)NCc3ccccc3)no2)cc1 (stereo not given),0.2
CNC[C@@H]1Oc2cc(C#CC3CCCC3)ccc2S(=O)(=O)N([C@@H](C)CO)C[C@@H]1C,-9.3
Cc1noc(C)c1S(=O)(=O)N(C)C[C@@H]1Oc2ccc(N(C)C)cc2CC(=O)N([C@H](C)CO)C[C@@H]1C,0.2
C[C@H](O)C#Cc1cnc2c(c1)C(=O)N([C@@H](C)CO)C[C@@H](C)[C@@H](CN(C)C(=O)Cc1ccccn1)O2,-2.5
O=C(NCc1ccccc1CN1CCCC1)c1ccc(S(=O)(=O)Nc2ccccc2F)cc1,3.1
CCC(=O)Nc1ccc2c(c1)OC[C@H](C)N(C(=O)COC)C[C@H](C)[C@@H](OC)CN(C)C2=O,7.1
C[C@@H]1CN([C@@H](C)CO)C(=O)c2cc(C#CC3CC3)cnc2O[C@H]1CN(C)C(=O)Cc1ccccn1,-2.3
CSc1ccc(CN2CCC2(C)C(=O)NCc2ccccc2Br)cc1 (stereo not given),1.0
O=S(=O)(c1ccccc1)N1CC[C@@H]2[C@H](CO)Nc3ccc(C#Cc4ccccc4F)cc3[C@@H]21,-1.2
CC(C)NC(=O)Nc1cccc2c1O[C@H](CN(C)Cc1ccccc1)[C@H](C)CN([C@@H](C)CO)C2=O,-1.6
C[C@H]1CCCCO[C@H](CN(C)CC2CCCCC2)[C@@H](C)CN([C@@H](C)CO)C(=O)c2cc(NC(=O)C3CCCCC3)ccc2O1,0.9

# Grouped by structure: those above with bromine (five)
SMILES,MLL AF4-AF9 inh
COc1ccc(Cc2c(-c3ccc(C)cc3)nc3c(C)cc(Br)cn23)c(C)c1,-2.4
CCOC(=O)[C@H]1[C@H]2COc3ccc(Br)cc3[C@@H]2N2C(=O)CN(C)C(=O)[C@@]12C,-2.1
COc1ccc(C(=O)c2[nH]c(N)c(C(=O)NCCc3c[nH]c4ccccc34)c2-c2ccccc2Br)cc1,-0.9
CN1CCCCN2[C@H](C1)[C@H](c1ccc(Br)cc1)[C@@H]2CO,0.2
CSc1ccc(CN2CCC2(C)C(=O)NCc2ccccc2Br)cc1 (stereo not given),1.0

# Next records
SMILES,MLL AF4-AF9 inh
COc1ccc2c3c(n(C)c2c1)[C@@H](CO)NCC31CN(CC2CC2)C1,16.3
CC(C)NC(=O)Nc1ccc2c(c1)CC(=O)N([C@H](C)CO)C[C@H](C)[C@H](CN(C)C(=O)Nc1cccc3ccccc13)O2,-0.4
CO[C@H]1CN(C)C(=O)c2ccc(NC(=O)C3CC3)cc2OC[C@@H](C)N(C(=O)CN(C)C)C[C@@H]1C,-0.6
CN(C(=O)CSc1nc2ccccc2[nH]1)C1CCS(=O)(=O)C1 (stereo not given),-0.7
COCC(=O)Nc1ccc2c(c1)C(=O)N(C)C[C@@H](OC)[C@@H](C)CN(C(=O)Cc1cccnc1)[C@H](C)CO2,-0.5
O=C(NNC(=O)c1cc(-c2ccc(Br)cc2)nc2ccccc12)c1csc(N2CCOCC2)n1,-2.4
C[C@H](CO)N1C[C@H](C)[C@@H](CN(C)C(=O)NC2CCCCC2)Oc2ccc(NC(=O)Nc3ccc(F)cc3)cc2CC1=O,-0.5
C[C@@H]1CCCCO[C@@H](CN(C)C(=O)Nc2ccccc2)[C@H](C)CN([C@@H](C)CO)C(=O)c2cc(NC(=O)CCC(F)(F)F)ccc2O1,-3.1
